Vaccinia stage: blocks a specific stage of Vaccinia orthopoxvirus infection, primary screen, cell-based, single point; Vaccinia-infected cells, mCherry/Venus stage reporter fluorescence; hits give low values; some inactives read as strong as hits; activity change (mCherry), % (no concentration beside the values); hit rate 0.01% among 89,000;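 active = mCherry past -33% and 40 or more points under the early reporter, replicates agreeing; inconclusive = past -33% without that gap or agreement; tested in A549 cells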;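 note: scaled between vehicle wells and reference inhibitor wells; 23 nL library stock went into each well; one replicate is shown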
Vaccinia stage Venus: further read-out of Vaccinia stage, marked with its call; activity change (Venus), %; measured here: Venus reporter, other viral stage;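 negative = less Venus signal; first of two replicates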
An asterisk follows results filed as active; ? = inconclusive; · = not tested or not shown; & = joins results of further samples. Only part of the results is shown; rates above refer to the full screens.

SMILES	Vaccinia stage	Vaccinia stage Venus
CN(C)C(=O)[C@@H]1[C@@H](CO)[C@@H]2Cn3c(cccc3=O)[C@H]1N2C(=O)c1ccc(F)cc1	-4	0
COc1cccc(NC(=O)C[C@@H]2CC[C@H]3[C@H](COc4ccc(NC(=O)C5CC5)cc4C(=O)N3C)O2)c1	6	12
CCCNC(=O)N1CC2(CCN(C(C)=O)CC2)c2c(n(C)c3cc(OC)ccc23)[C@@H]1CO	21	2
CS(=O)(=O)N1[C@@H]2c3ccc(C4=CCCCC4)c(=O)n3C[C@@H]2[C@@H](CO)[C@@H]1C(=O)NCc1ccncc1	2	-1
Cc1noc(C)c1NC(=O)Nc1ccc2c(c1)CC(=O)N([C@@H](C)CO)C[C@@H](C)[C@H](CN(C)Cc1ccc(C(F)(F)F)cc1)O2	-15	-12
COc1ccc(-c2cnc3c(c2)C(=O)N([C@@H](C)CO)C[C@@H](C)[C@@H](CN(C)C(=O)C2CCCCC2)O3)cc1	12	0
O=C(NCc1nc2ccccc2[nH]1)C1=C[C@H](c2coc3ccccc3c2=O)C[C@H](OCc2ccc(CO)cc2)O1	-22	-18
CCCC(=O)Nc1ccc2c(c1)OC[C@H](C)N(Cc1ccccc1F)C[C@@H](C)[C@@H](OC)CN(C)C2=O	-14	-12
C[C@H]1CN([C@@H](C)CO)C(=O)c2cc(C#CC3CC3)cnc2O[C@@H]1CN(C)S(C)(=O)=O	19	15
CN1C(=O)c2cc(NC(=O)c3cnccn3)ccc2OC[C@H]2O[C@@H](CC(=O)NCC3CCCCC3)CC[C@@H]21	8	13

Three entries from above, reformatted.
O=C(NCc1nc2ccccc2[nH]1)C1=C[C@H](c2coc3ccccc3c2=O)C[C@H](OCc2ccc(CO)cc2)O1
- Vaccinia stage = -22
- Vaccinia stage Venus = -18

CCCC(=O)Nc1ccc2c(c1)OC[C@H](C)N(Cc1ccccc1F)C[C@@H](C)[C@@H](OC)CN(C)C2=O
- Vaccinia stage = -14
- Vaccinia stage Venus = -12

C[C@H]1CN([C@@H](C)CO)C(=O)c2cc(C#CC3CC3)cnc2O[C@@H]1CN(C)S(C)(=O)=O
- Vaccinia stage = 19
- Vaccinia stage Venus = 15

The results go on.
SMILES	Vaccinia stage	Vaccinia stage Venus
CCCNC(=O)N1C[C@@H]2[C@H](c3ccccc31)[C@@H](CO)N2C(=O)Nc1ccccc1F	1	5
Cc1ccc(S(=O)(=O)N(C)C[C@@H]2Oc3ccc(NC(=O)CCN4CCOCC4)cc3CC(=O)N([C@H](C)CO)C[C@H]2C)cc1	-1	-4
Cc1ccc(-c2ccc(C3[C@H]4CNC[C@@H]3N4S(=O)(=O)c3cn(C)cn3)cc2)cc1 (stereo partly specified)	12&-1	5&5
C[C@H]1CN([C@@H](C)CO)C(=O)c2cccc(N(C)C)c2O[C@@H]1CN(C)C(=O)Nc1cccc2ccccc12	?	·
C[C@@H]1CCCCO[C@@H](CN(C)S(=O)(=O)c2cn(C)cn2)[C@@H](C)CN([C@H](C)CO)C(=O)c2cc(NC(=O)C3CCCCC3)ccc2O1	19	17
C[C@H](CO)N1C[C@H](C)[C@H](CN(C)C(=O)NC2CCCCC2)Oc2c(NC(=O)Nc3ccc4c(c3)OCO4)cccc2C1=O	?	·
COc1ccc(S(=O)(=O)N(C)C[C@H]2OCCCC[C@H](C)Oc3ccc(NC(=O)c4ccncc4)cc3C(=O)N([C@@H](C)CO)C[C@@H]2C)cc1	-10	-8
CCC(=O)N1[C@@H]2c3cccc(=O)n3C[C@@H]2[C@@H](CO)[C@@H]1C(=O)NCc1ccc(F)cc1	13	7
O=C(C[C@H]1C=C[C@H](NC(=O)NC2CCCCC2)[C@H](CO)O1)NCc1ccc(F)cc1	-13	4
COc1ccc(NC(=O)Nc2cccc3c2O[C@@H](CN(C)S(=O)(=O)c2cccs2)[C@@H](C)CN([C@@H](C)CO)C3=O)cc1	-3	4

Three structures out of the list, sorted by SMILES length, rising:
SMILES	Vaccinia stage	Vaccinia stage Venus
CCCNC(=O)N1C[C@@H]2[C@H](c3ccccc31)[C@@H](CO)N2C(=O)Nc1ccccc1F	1	5
CCC(=O)N1[C@@H]2c3cccc(=O)n3C[C@@H]2[C@@H](CO)[C@@H]1C(=O)NCc1ccc(F)cc1	13	7
C[C@@H]1CCCCO[C@@H](CN(C)S(=O)(=O)c2cn(C)cn2)[C@@H](C)CN([C@H](C)CO)C(=O)c2cc(NC(=O)C3CCCCC3)ccc2O1	19	17

The list goes on:
SMILES	Vaccinia stage	Vaccinia stage Venus
COc1ccc2c3c(n(C)c2c1)[C@H](CO)N(Cc1ccccc1Cl)CC31CCN(C(=O)CN(C)C)CC1	?	·
CC(C)NC(=O)N(C)C[C@@H]1Oc2ccc(NC(=O)Nc3cccc4ccccc34)cc2CC(=O)N([C@@H](C)CO)C[C@H]1C	0	3
CCCNC(=O)Nc1ccc2c(c1)OC[C@@H](C)N(Cc1ccccn1)C[C@H](C)[C@@H](OC)CN(C)C2=O	7	4
C[C@@H]1CN([C@H](C)CO)C(=O)Cc2cc(NC(=O)Cn3cnnn3)ccc2O[C@H]1CN(C)S(=O)(=O)c1ccc(Cl)cc1	10	12
CC(=O)N1[C@H](CO)[C@H](c2ccccc2)C12CN(Cc1nccs1)C2	-4	-2
C[C@H](CO)N1C[C@H](C)[C@@H](CN(C)C(=O)c2ccccc2)OCCCC[C@H](C)Oc2ccc(NC(=O)Nc3ccc4c(c3)OCO4)cc2C1=O	16	-4
COc1ccccc1S(=O)(=O)N[C@H]1CC[C@@H](CC(=O)NCc2cccc(F)c2)O[C@@H]1CO	1	-3
N#C[C@H]1[C@H](c2ccc(C#CC3CC3)cc2)[C@@H](CO)N1S(=O)(=O)c1ccccc1	2	-5
C[C@H]1CCCCO[C@@H](CN(C)S(=O)(=O)c2ccccc2)[C@@H](C)CN([C@@H](C)CO)C(=O)c2cc(NC(=O)NC3CCCCC3)ccc2O1	?	·
C[C@@H]1CN([C@H](C)CO)S(=O)(=O)c2ccc(C#CC3CC3)cc2O[C@H]1CN(C)Cc1cccnc1	?	·
CC(C)CC#Cc1ccc2c(c1)O[C@@H](CN(C)C(=O)C1CCOCC1)[C@@H](C)CN([C@@H](C)CO)S2(=O)=O	-5	2
C[C@H]1CN([C@@H](C)CO)C(=O)c2cc(NS(=O)(=O)c3cn(C)cn3)ccc2O[C@H]1CN(C)Cc1ccncc1	1	-8
O=C(C[C@@H]1CC[C@@H]2[C@H](COC[C@H](O)CN2C(=O)c2ccncc2)O1)Nc1ccc(-c2ccccc2)cc1	1	14
Cc1noc(C)c1NC(=O)Nc1ccc2c(c1)C(=O)N([C@H](C)CO)C[C@@H](C)[C@H](CN(C)C(=O)Nc1ccc3c(c1)OCO3)O2	15	11
C[C@@H]1CN([C@H](C)CO)S(=O)(=O)c2ccc(C#Cc3cccnc3)cc2O[C@H]1CN(C)CC1CCCC1	?	·
CN1C(=O)c2cc(NC(=O)Cc3cccs3)ccc2OC[C@@H]2O[C@H](CC(=O)NCCCN3CCOCC3)CC[C@H]21	8	10
C[C@H]1CN([C@@H](C)CO)C(=O)Cc2cc(NS(=O)(=O)c3ccc(Cl)cc3)ccc2O[C@H]1CN(C)Cc1ccc2c(c1)OCO2	-21	-12
C[C@H]1CN([C@@H](C)CO)C(=O)c2cc(NS(=O)(=O)c3ccccc3)ccc2O[C@@H]1CN(C)Cc1ccc(-c2ccccc2)cc1	?	·
COC(=O)C[C@@H]1CC[C@@H]2[C@@H](COc3ccc(NC(=O)Nc4ccc(C#N)cc4)cc3C(=O)N2C)O1	-5	-1
Cn1cnc(S(=O)(=O)N[C@H]2CC[C@H](CC(=O)NCC3CC3)O[C@@H]2CO)c1	-4	-6
COc1ccc(NC(=O)Nc2cccc3c2O[C@H](CN(C)Cc2ccc4c(c2)OCO4)[C@@H](C)CN([C@@H](C)CO)C3=O)cc1	-15	-7
C/C=C/c1ccc2c(c1)O[C@H](CN(C)Cc1ccccn1)[C@H](C)CN([C@@H](C)CO)S2(=O)=O	-3	1
CCCNC(=O)Nc1ccc2c(c1)C(=O)N(C)[C@@H]1CC[C@H](CC(=O)NCC3CCCCC3)O[C@@H]1CO2	-11	-6
C[C@H](CO)N1C[C@H](C)[C@H](CN(C)S(=O)(=O)c2ccccc2F)Oc2ncc(/C=C/c3ccccc3)cc2C1=O	-7&-18	-1&-13
C[C@H](CO)N1C[C@H](C)[C@H](CN(C)S(=O)(=O)c2cccs2)Oc2ncc(-c3cccc(F)c3)cc2C1=O	-6	-11
C[C@H](CO)N1C[C@H](C)[C@@H](CN(C)C(=O)Cc2ccncc2)Oc2ncc(C#Cc3ccccc3F)cc2C1=O	-6	-15
C[C@@H]1CN([C@@H](C)CO)C(=O)c2cc(NC(=O)Cc3ccccc3)ccc2O[C@@H]1CN(C)Cc1ccncc1	2	1
COC(=O)C[C@H]1C[C@H]2c3cc(NS(=O)(=O)c4ccc(F)cc4)ccc3O[C@H]2[C@H](CO)O1	6	-1
C[C@@H]1CCCCO[C@@H](CN(C)S(=O)(=O)c2cn(C)cn2)[C@@H](C)CN([C@@H](C)CO)C(=O)c2cc(N(C)C)ccc2O1	1	-5
O=C(c1cccc(F)c1)N1CC[C@@H]2[C@H](CO)Nc3ccc(-c4ccccc4)cc3[C@@H]21	-9	-10

Continued (three carried over from the part before).
SMILES	Vaccinia stage	Vaccinia stage Venus
COC(=O)C[C@H]1C[C@H]2c3cc(NS(=O)(=O)c4ccc(F)cc4)ccc3O[C@H]2[C@H](CO)O1	6	-1
C[C@@H]1CCCCO[C@@H](CN(C)S(=O)(=O)c2cn(C)cn2)[C@@H](C)CN([C@@H](C)CO)C(=O)c2cc(N(C)C)ccc2O1	1	-5
O=C(c1cccc(F)c1)N1CC[C@@H]2[C@H](CO)Nc3ccc(-c4ccccc4)cc3[C@@H]21	-9	-10
C[C@@H]1CCCCO[C@@H](CN(C)C)[C@@H](C)CN([C@@H](C)CO)C(=O)c2cc(N(C)C)ccc2O1	3	2
O=C(c1ccccc1)N1CC2(C1)[C@@H](c1ccccc1)[C@H](CO)N2C(=O)CC1CC1	7	5
O=S(=O)(N[C@@H]1CC[C@@H](CCn2cc(-c3ccccn3)nn2)O[C@H]1CO)c1cccc(F)c1	4	11
C[C@H]1CCCCO[C@@H](CN(C)CC2CCCCC2)[C@@H](C)CN([C@@H](C)CO)C(=O)c2cc(NC(=O)Nc3ccc(C(F)(F)F)cc3)ccc2O1	8	-8
O=C(CN1CCOCC1)N[C@@H]1CC[C@@H](CCNC(=O)C2CCCCC2)O[C@@H]1CO	4	4
COCC(=O)N1C[C@H](C)[C@H](OC)CN(C)C(=O)c2ccc(NC(=O)NC(C)C)cc2OC[C@@H]1C	2	2
CO[C@H]1CN(C)C(=O)c2cc(NC(C)=O)ccc2OC[C@H](C)N(C(=O)c2ccc(F)cc2)C[C@@H]1C	9	5
COc1ccc(S(=O)(=O)Nc2ccc3c(c2)C(=O)N([C@@H](C)CO)C[C@@H](C)[C@@H](CN(C)C(=O)c2ccncc2)OCCCC[C@@H](C)O3)cc1	22	9
C[C@@H]1CN([C@@H](C)CO)C(=O)c2cccc(NC(=O)Nc3ccc4c(c3)OCO4)c2O[C@@H]1CN(C)CC1CC1	-14	-11
C[C@@H]1CCCCO[C@@H](CN(C)Cc2ccc(C(F)(F)F)cc2)[C@H](C)CN([C@H](C)CO)C(=O)c2cc(NC(=O)NC3CCCCC3)ccc2O1	13	12
CNC(=O)C[C@@H]1CC[C@@H]2[C@H](COc3ccc(NC(=O)Nc4ccc(C)cc4)cc3C(=O)N2C)O1	-1	2
O=C(C[C@H]1CC[C@H]2[C@@H](COC[C@H](O)CN2C(=O)c2cccnc2)O1)NCc1ccc(-c2ccccc2)cc1	-6	-2
CN1C(=O)c2cc(NC(=O)Nc3cccc(Cl)c3)ccc2OC[C@@H]2O[C@@H](CC(=O)NCCc3ccncc3)CC[C@@H]21	10	0
CC=Cc1ccc2n(c1=O)C[C@H]1[C@H](CO)[C@@H](C(=O)N[C@@H](C)c3ccccc3)N(C(=O)c3cnccn3)[C@@H]21 (mixture of isomers)	18	11
Cn1cnc(S(=O)(=O)N2CCCCN3[C@H](CO)[C@H](c4ccc(-c5ccc(F)cc5)cc4)[C@@H]3C2)c1	14	-9
O=C(C[C@@H]1CC[C@H]2[C@@H](COC[C@H](O)CN2S(=O)(=O)c2ccccc2)O1)Nc1ccc(-c2ccccc2)cc1	?	·
C[C@H](CO)N1C[C@H](C)[C@@H](CN(C)Cc2ccc(Cl)c(Cl)c2)Oc2ccc(NC(=O)CCC(F)(F)F)cc2C1=O	-10	-16
COC(=O)[C@H]1[C@H](CO)[C@H]2Cn3c(ccc(-c4ccccc4OC)c3=O)[C@H]2N1CC1CCOCC1	-2	8
C[C@@H]1CCCCO[C@@H](CN(C)C(=O)c2ccncc2)[C@H](C)CN([C@H](C)CO)C(=O)c2cc(NC(=O)c3ccccc3)ccc2O1	25	13
Cn1cnc(S(=O)(=O)N[C@H]2CC[C@@H](CC(=O)Nc3ccc(-c4ccccc4)cc3)O[C@H]2CO)c1	-1	1
COc1ccc(NC(=O)N(C)C[C@H]2Oc3ccc(NC(=O)c4ccncc4)cc3CC(=O)N([C@H](C)CO)C[C@@H]2C)cc1	23	19
CO[C@@H]1CN(C)C(=O)c2ccc(NS(C)(=O)=O)cc2OC[C@H](C)N(Cc2nccs2)C[C@@H]1C	-7	-7
C[C@@H]1CN([C@@H](C)CO)C(=O)c2cc(NC(=O)Nc3ccc(F)cc3)ccc2O[C@@H](C)CCCCO[C@@H]1CN(C)C(=O)Nc1ccc2c(c1)OCO2	0	-2
C[C@@H]1CN([C@@H](C)CO)C(=O)c2cccc(NS(=O)(=O)c3ccccc3)c2O[C@@H]1CN(C)Cc1ccccc1	7	5
COc1cccc(S(=O)(=O)N[C@@H]2C=C[C@@H](CC(=O)NCc3ccccc3)O[C@H]2CO)c1	9	0
CO[C@H]1CN(C)C(=O)c2cc(NS(=O)(=O)Cc3ccccc3)ccc2OC[C@H](C)NC[C@@H]1C	3	0
